# HPGD inh: qHTS Assay for Inhibitors of HPGD (15-Hydroxyprostaglandin Dehydrogenase); Potency, µM, without a hit: at the top dose activity change, negative = inhibition, actives largely listed as inhibitors; 4.3% of 150,000 active; AID 894, 2007; purified HPGD, NADH fluorescence kinetic, PGE2 substrate; active = well fitted inhibition curve with a large enough effect (not every such curve was filed as active); inconclusive = small, poorly fitted or top-dose-only effect, or another doubt; inactive = no such curve, though single readings can be large or run the other way;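 note: top concentration of the series not given in the record; plate controls included wells without enzyme; inactives centre near -10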
# Target sequence (P15428 whole entry, looked up): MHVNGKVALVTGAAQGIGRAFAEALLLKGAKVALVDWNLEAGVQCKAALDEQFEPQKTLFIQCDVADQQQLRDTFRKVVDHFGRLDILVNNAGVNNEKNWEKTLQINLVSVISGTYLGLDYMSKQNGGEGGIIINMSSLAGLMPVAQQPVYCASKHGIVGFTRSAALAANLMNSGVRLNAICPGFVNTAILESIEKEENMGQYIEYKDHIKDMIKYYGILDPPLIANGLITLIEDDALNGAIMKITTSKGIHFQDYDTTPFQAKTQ
#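 NADH formation kinetics: reaction with 30 uM PGE2 and 1 mM NAD+ (final), 20 nM enzyme, Tris-HCl pH 8 with Tween 20, after 15 min compound preincubation at room temperature. Fluorescence change, last versus first of five reads.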
# Active calls of the source: *; ? = inconclusive; & = joins results of further samples. % is set by controls: 0 for no effect and ±100 for the full control effect; potency is the fitted concentration of half-maximal effect.
SMILES,HPGD inh
CC1CCN(C(=S)Nc2ccc3nc4n(c(=O)c3c2)CCCCC4)CC1,13µM*
Fc1ccc(-c2nnc(SCc3ncc(-c4ccccc4)o3)n2CC2CCCO2)cc1 (centres undefined),-5%
Cc1ccc(C(=O)OCC(=O)Nc2sc3c(c2C#N)CCCC3)cc1NC(=O)c1ccco1,-15%
CC(O)CNc1nc2c(c(=O)n(C)c(=O)n2C)n1Cc1cccc(C(F)(F)F)c1 (centres undefined),-3%
COc1ccc(NC(=O)COn2nnc3ccc(Cl)cc32)cc1OC,-11%
CCn1c(-c2csc3c2CCC(C)C3)n[nH]c1=S (centres undefined),-29%
CCC(C)C(=O)Nc1cc(C(=O)OC)cc(C(=O)OC)c1 (centres undefined),-3%
CCN(CC)CCN1C(=O)C(=O)/C(=C(/O)c2cnn(-c3ccccc3)c2C)C1c1cccs1 (centres undefined),-15%
Clc1ccc(CSc2cc3c(nn2)-c2ccccc2CC3)cc1Cl,0%
Cc1c(NC2=NC3(CCCCC3)Cc3ccccc32)c(=O)n(-c2ccccc2)n1C,-10%
CCN(C(=S)NC(=O)c1ccccc1Br)C1CCCCC1,-8%
C=CCn1c(C(CC(C)C)CC(C)O)n[nH]c1=S (centres undefined),-4%
COc1ccc(NC(=O)CN(c2ccccc2)S(=O)(=O)N(C)C)cc1OC,-7%
CCOC(=O)C(C)Sc1nc(-c2ccco2)cc(C(F)(F)F)c1C#N (centres undefined),?
Cc1cc(C)cc(C(=O)OCC(=O)NCC(F)(F)F)c1,-1%
Cc1ccc(C(=O)CSc2nnc(-c3cccs3)n2C)o1,-13%
CCOC(=O)N/N=C1\CC(C)CC(C)(C)C1 (centres undefined),-2%
COC(=O)[C@@H]1C[C@@]2(O)[C@@H](O)[C@@H](O)[C@@H](O)C[C@H]2N1Cc1ccc(C)s1,-9%
CCOC(=O)N1CCN(C(=O)C2CCN(S(=O)(=O)c3ccccc3)CC2)CC1,-8%
CSCC[C@H](NC(=O)C(C)Oc1ccc(Cl)cc1)c1nc2ccccc2[nH]1 (some centres undefined),-8%
COC(=O)c1cc(NC(=O)Nc2cc(OC)ccc2OC)cc(C(=O)OC)c1,-8%
CN(C(=O)c1ccc(Cl)c(S(=O)(=O)N2CCOCC2)c1)c1ccccc1C(=O)O,2%
CCOC(=O)Nc1cc(C(=O)OC)ccc1C,-3%
O=C(NNC(=S)Nc1cccc(C(F)(F)F)c1)c1cccc(Cl)c1,-8%
CC1CCN(S(=O)(=O)c2ccc3c(c2)oc(=O)n3CC(=O)NCc2ccc3c(c2)OCO3)CC1,-11%

# (cont.)
SMILES,HPGD inh
COc1ccc(-c2nc(C)c(C(C)=O)n2O)cc1,-8%
CCOC(=O)N1CCN(C(=O)c2ccc3c(=O)n4c(nc3c2)CCCCC4)CC1,-19%
COc1ccc2c(c1)C(c1cc(OC)c(OC)c(OC)c1)CC(=O)O2 (centres undefined),-3%
CSc1ncccc1C(=O)OCC(=O)Nc1ccc(S(=O)(=O)N2CCCC2)cc1,-11%
CC(=O)N1CCN(c2ccc(NCc3ccccc3)cc2)CC1,-8%
Cc1ccc(-c2noc(=O)n2CC(=O)Nc2ccc(S(=O)(=O)NC3CC3)cc2)cc1,-24%
Cc1ccccc1-c1nnc(Cc2ccccc2)o1,?
Cc1ccc(NC(=O)c2c(C(F)(F)F)nn(C)c2Cl)cc1C,-14%
O=C(CN(C1CCCCC1)S(=O)(=O)c1ccc(F)cc1)NCCCO,-7%
O=C(c1coc2ccc(O)cc12)C1CC1,-14%
CCn1cc(/C=N/NS(=O)(=O)c2ccc(C)cc2)c(C)n1,-13%
CC1(C)CC(=O)C2=C(C1)N=C1SCCC(=O)N1C2c1ccc(C(F)(F)F)cc1 (centres undefined),-11%
CCc1ccc(NC(=O)c2ccc3ncsc3c2)cc1,-15%
O=C(c1cc(-c2ccc(O)cc2)on1)N1CCCc2ccccc21,-28%
COC(=O)c1cc(OC)c(OC)cc1NC(=S)N1CCN(C/C=C/c2ccccc2)CC1,-18%
O=C(NCN1CCc2ccccc2C1)c1cnccn1,-8%
CCOc1ccc(C2NC(=O)NC(C)=C2C(=O)OC)cc1C (centres undefined),-21%
Cc1cc(-c2ccccc2)nc(N2CCC(C(=O)NCc3ccccc3Cl)CC2)n1,-32%
CC1=C(C#N)C(Nc2ccc(Cl)cn2)(C(F)(F)F)C(=O)N1 (centres undefined),-1%
CN(/N=C\c1ccc(O)c(O)c1)c1nc(-c2ccccc2)cc(-c2ccccc2)n1,-25%
CCCc1nc(-c2cc3ccc(C)cc3[nH]c2=O)no1,?
Cc1cccc(N2C(=O)CC(Sc3nc(C)c4c(n3)CCCC4)C2=O)c1 (centres undefined),-5%
COc1ccccc1OC(=O)CN1C(=O)c2ccccc2C1=O,-9%
CC(C)(C)C(=O)CSc1nnc(-c2cccs2)n1CC1CCCO1 (centres undefined),-9%
Cc1c(C(=O)Nc2ccc(Br)cc2)cnn1C,-15%

# Additional structures follow:
SMILES,HPGD inh
COCCNc1nc(SCc2ccccc2)nc2sc3c(c12)CCC3,-10%
Cc1cccc2c1OCC/C2=N\NC(=O)COc1ccccc1Cl,-3%
COc1ccc(CCNC(=O)CCC2COc3ccccc3O2)cc1OC (centres undefined),-10%
CCC(C)(C)NC(=O)C(c1cccn1C)N(Cc1ccccc1)C(=O)Cn1nnc2ccccc21 (centres undefined),-13%
CC(=O)n1c2c(c3ccccc31)OC(N)=C(C#N)C2c1cccc(Cl)c1Cl (centres undefined),1%
Brc1ccc(OCCCN2CCOCC2)cc1,6%
CCC(=O)N1CCCc2cc(S(=O)(=O)N3CCC(N4CCCCC4)CC3)ccc21,-13%
CCCCC/C=C\C/C=C\C/C=C\C=C\[C@@H](O)CCCC(=O)O,-5%
Cc1ccc(-n2nnc3c(=O)n(Cc4cccc(C)c4)cnc32)cc1,4µM*
Cn1c(SCC(=O)NC(C)(C)C)nnc1-c1ccc(C(C)(C)C)cc1,-14%
CCN1CCN(c2nc(-c3cccnc3)nc3ccccc23)CC1,-9%
COc1cc([N+](=O)[O-])ccc1NC(=O)Nc1nc2c(s1)CCCC2,-5%
Cc1ccc(OCC(=O)Nc2ccc(Cl)cc2)c(-n2nc3ccccc3n2)c1,?
COc1ccccc1CN1CCCC2(CCN(S(C)(=O)=O)CC2)C1,0%
CC(=O)C(=[N+]=[N-])C(=O)NCc1ccccc1,-10%
COc1ccccc1C1C(C(C)=O)=C(O)C(=O)N1CCc1ccccc1 (centres undefined),-11%
OCCNc1ccc(Cl)cc1,-13%
CC(=O)Nc1sc(C)c(C)c1CN1CCN(S(=O)(=O)c2ccccc2)CC1,-12%
COC(=O)c1oc2ccc(Br)cc2c1NC(=O)CCN1CCOCC1,-4%
COc1ccccc1NC(=O)c1ccc(NC(=O)c2cc3c(s2)CCC3)cc1,?
O=C(/C=C/c1ccc(Cl)cc1)NCc1cccs1,-19%
Cc1csc(NC(=O)CCN2C(=O)c3ccccc3S2(=O)=O)n1,-17%
COc1ccc([N+](=O)[O-])cc1NC(=O)Nc1cccc(Cl)c1,-15%
CCOC(=O)/C(C#N)=C/Nc1cc(OC)ccc1OC,?
CN(Cc1ccccc1)c1nnc(N)s1,-4%

# Individual results from the list.
# COCCNc1nc(SCc2ccccc2)nc2sc3c(c12)CCC3 in HPGD inh reads -10%
# COC(=O)c1oc2ccc(Br)cc2c1NC(=O)CCN1CCOCC1 in HPGD inh reads -4%

# The listing continues:
SMILES,HPGD inh
Cc1ccccc1-c1nc(CN2CCC(C(=O)NCC3CCCO3)CC2)c(C)o1 (centres undefined),7%
COc1ccc(-c2nnc(-c3cccnc3)o2)cc1OC,-30%
CCOc1ccc(CCNC(=O)C2CCCN(c3nnc(-n4cccc4)s3)C2)cc1OCC (centres undefined),-17%
Cn1c(=O)oc2cc(S(=O)(=O)NC3CCCc4ccccc43)ccc21 (centres undefined),-9%
Cc1cc(C)nc(SCc2nnc(SCC(=O)N3CCCc4ccccc43)o2)n1,-15%
CCC(=O)N(Cc1cc2c(C)ccc(C)c2[nH]c1=O)C1CCCCC1,-10%
O.O.O.O=S(=O)([O-])OC[C@H]1O[C@@H](O[C@]2(COS(=O)(=O)[O-])O[C@H](OS(=O)(=O)[O-])[C@@H](OS(=O)(=O)[O-])[C@@H]2OS(=O)(=O)[O-])[C@H](OS(=O)(=O)[O-])[C@@H](OS(=O)(=O)[O-])[C@@H]1OS(=O)(=O)[O-].[Al],-1%
CC(Oc1ccc(Br)cc1)C(=O)NCc1cccnc1 (centres undefined),-3%
CCC(=O)Nc1ccccc1C(=O)OCC(=O)c1ccccc1,-3%
Cc1ccc(C)c(-n2c(Cc3cc(=O)[nH]c(=O)[nH]3)nnc2SC(C)C)c1,-4%
CCCCCCCCCCCCC/C=C/[C@@H](O)[C@H](CO)N(C)C,-2%
O=C1CN(C(=O)C2CC2)c2ccccc2N1,-5%
CCOC(=O)C1=NO[C@@]2(C=C(Br)C(=O)[C@H]3O[C@H]32)C1,-23%
O=C(c1ccc(F)cc1)C1CCN(CCn2c(=S)[nH]c3ccccc3c2=O)CC1,14µM*
O=c1[nH]c2cc(Cl)ccc2n1-c1ccccc1,-1%
COc1ccc(C(=O)NCc2ccc3c(c2)OCO3)cc1S(=O)(=O)NCc1ccc(Cl)cc1,-21%
O=C(N/N=C/c1cc(Br)ccc1O)c1ccccc1Cl,-23%
CCOC(=O)c1c(-c2ccccc2)n(C)c2ccc(O)cc12,?
O=C(Nc1cccc(F)c1)N1CC2(CCN(S(=O)(=O)c3ccccc3)CC2)C1,-7%
O=C(N/N=C/c1ccccc1Br)c1ccc(CSc2cccc3cccnc23)cc1,?
Cc1cc(C)n(-c2ccc(C(=O)Nc3cc(S(=O)(=O)N(C)C)ccc3Cl)cc2)n1,-3%
Cc1cc(Br)cc(C)c1OCCCCN(C)C,-2%
COc1ccc(-c2nc3n(n2)C(c2cccnc2)C(C(N)=O)=C(C)N3)cc1 (centres undefined),-2%
COc1cc(NC(=O)CN2CCN(c3ccccc3F)CC2)c(C)cc1[N+](=O)[O-],-10%
CC1COc2ccccc2C1=O (centres undefined),-5%

# (cont.)
SMILES,HPGD inh
O=C(CNc1cccc2ccccc12)c1ccc([N+](=O)[O-])cc1,-26%
Nc1cc(-c2ccco2)no1,-15%
CC(=O)Nc1ccc(S(=O)(=O)NC(CC(=O)NCCC2=CCCCC2)C(C)C)cc1 (centres undefined),-13%
O=C(Cn1cnc([N+](=O)[O-])c1)Nc1cc(Oc2ccc(Cl)cc2Cl)cc([N+](=O)[O-])c1,-11%
CN(C(=O)COC(=O)CNC(=O)c1sc2ccccc2c1Cl)c1ccccc1,-13%
CCOC(=O)N1CCN(C(=O)CSCC(=O)Nc2nc(-c3ccc(Cl)s3)cs2)CC1,-13%
O=C(CSC1=NCCS1)N1CCN(c2ccc(Cl)cc2)CC1,-5%
CCOC(=O)c1ccc(NC(=O)C2CCCO2)cc1 (centres undefined),25µM*
CCCCN1CNC(=S)N(c2ccc(C(=O)OCC)cc2)C1,-4%
Cn1c(=O)c2c(nc(CN3CCC(C(N)=O)CC3)n2Cc2c(F)cccc2Cl)n(C)c1=O,-3%
CC1=NNC(=O)/C1=C\c1cn(-c2ccccc2)nc1-c1ccc(Cl)cc1,-11%
O=C1NC(=NCc2ccccc2)S/C1=C\c1ccccc1,?
COC(=O)c1ccc(NC(=O)C(=O)N2CCN(C(=S)Nc3ccc(C)cc3)CC2)cc1,-6%
CCC(=O)N1CCc2cc(S(=O)(=O)CCC(=O)O)ccc21,-5%
CC(C)(C)C(=O)CSc1nccc(=O)[nH]1,-7%
CCOc1ccc(S(=O)(=O)Nc2ccc(C(=O)N/N=C/c3c(C)nn(-c4ccccc4)c3N3CCCC3)cc2)cc1,?
C[C@H](CCC(=O)O)[C@H]1CC[C@H]2[C@@H]3CC[C@@H]4C[C@H](O)CC[C@]4(C)[C@H]3CC[C@]12C,-2%&-4%
CC1CCCCN1CCNC(=O)C1CCN(S(=O)(=O)N2CCCCC2)CC1 (centres undefined),-3%
CC1=CC(C)(C)N(S(=O)(=O)c2ccc(C)cc2)c2cc(C)ccc21,-18%
O=C(CCc1ccccc1)n1nc(-c2ccccc2)nc1NCc1ccco1,-19%
CCCCC(c1nnnn1Cc1ccco1)N1CCN(C(=O)c2ccco2)CC1 (centres undefined),0%
COc1ccc(Cc2nnc(NC(=O)c3c(-c4ccccc4)noc3C)s2)cc1,-13%
Cc1ccnc(SCCn2c(N3CC(C)CC(C)C3)nc3c2c(=O)n(C)c(=O)n3C)n1 (centres undefined),-10%
CCC(CC)c1nc(NCCC(=O)O)c2ccccc2n1,-5%

# Structural class: those above containing an aryl thioether with sulfur outside any ring.
SMILES,HPGD inh
Fc1ccc(-c2nnc(SCc3ncc(-c4ccccc4)o3)n2CC2CCCO2)cc1 (centres undefined),-5%
Clc1ccc(CSc2cc3c(nn2)-c2ccccc2CC3)cc1Cl,0%
CCOC(=O)C(C)Sc1nc(-c2ccco2)cc(C(F)(F)F)c1C#N (centres undefined),?
Cc1ccc(C(=O)CSc2nnc(-c3cccs3)n2C)o1,-13%
CSc1ncccc1C(=O)OCC(=O)Nc1ccc(S(=O)(=O)N2CCCC2)cc1,-11%
Cc1cccc(N2C(=O)CC(Sc3nc(C)c4c(n3)CCCC4)C2=O)c1 (centres undefined),-5%
CC(C)(C)C(=O)CSc1nnc(-c2cccs2)n1CC1CCCO1 (centres undefined),-9%
COCCNc1nc(SCc2ccccc2)nc2sc3c(c12)CCC3,-10%
Cn1c(SCC(=O)NC(C)(C)C)nnc1-c1ccc(C(C)(C)C)cc1,-14%
Cc1cc(C)nc(SCc2nnc(SCC(=O)N3CCCc4ccccc43)o2)n1,-15%
Cc1ccc(C)c(-n2c(Cc3cc(=O)[nH]c(=O)[nH]3)nnc2SC(C)C)c1,-4%
O=C(N/N=C/c1ccccc1Br)c1ccc(CSc2cccc3cccnc23)cc1,?
CC(C)(C)C(=O)CSc1nccc(=O)[nH]1,-7%
Cc1ccnc(SCCn2c(N3CC(C)CC(C)C3)nc3c2c(=O)n(C)c(=O)n3C)n1 (centres undefined),-10%

# This is a subset, so the mix of outcomes need not match the whole.
